Screening data as filed in PubChem.
Menin MLL FP FL: qHTS Assay for Inhibitors Targeting the Menin-MLL Interaction in MLL Related Leukemias: Competition With Fluorescein Labeled MLL-derived Peptide | AID 1766, 2009 | 290,000 tested, under 10 active | FP activity change, % at 61.4 µM | Fluorescence polarization, fluorescein-MLL peptide displacement from menin; inconclusive = falling polarisation curve, or a change in total fluorescence; inactive = total fluorescence flat and polarisation flat or rising; no compound was filed as active; the % refers to the polarisation; negative = inhibition;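 note: % of control where 0% means no effect; inhibitors lower the polarisation; unlabelled MLL peptide was the positive control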
Starred values were filed as active, the others as inactive; ? = inconclusive; & = joins results of further samples; [ ] = another dose, or the depositor's remark. An excerpt; rates above refer to the full screens.

Menin MLL FP FL,Molecule
2.5,Nc1nc2[nH]cc(CCc3ccc(C(=O)NC(CCC(=O)O)C(=O)O)cc3)c2c(=O)[nH]1 (stereo not given)
-3.6[11.7 µM],CC(=O)OC[C@@H]1O[C@H](CCO/N=C(\C)CCN2CCc3nc(-c4ccccc4)c(-c4ccccc4)cc3C2)C=C[C@@H]1OC(C)=O
-0.5,Cc1noc(C)c1C(=O)N1CCC[C@@]2(CCN(C(=O)Nc3cccc(C#N)c3)C2)C1
1.9,O=C(Oc1ccc([N+](=O)[O-])cc1)c1ccc(Cl)c(S(=O)(=O)N2CCCCC2)c1
0.5[11.7 µM],CCCCc1cc2c(cn1)C(=O)C(C)(OC(C)=O)C(=O)C2 (stereo not given)
1.3,Cc1ccc(C)n1-c1ccc(-c2nnco2)cc1
2.7[11.7 µM],CC1(C)CC(=O)C2=C(C1)O[C@@]1(c3ccsc3)Cc3cc(C#N)ccc3C2O1
-2.1&-0.4[11.7 µM],COc1cccc([C@H]2Oc3ccc(OC)cc3/C(=N\O[C@@H](C)c3cn([C@H](CO)Cc4ccccc4)nn3)[C@@H]2O)c1
-2.9,COc1ccc(C2=Nn3c(nnc3-c3ccc(OC)c(OC)c3)SC2)cc1
2.6,CCOc1cc(/C=N/NC(=O)c2cc(C)[nH]n2)ccc1OC(=O)c1ccc([N+](=O)[O-])cc1
-2.1,COC(=O)[C@@]1(Cc2ccc(OC)cc2)[C@H]2c3cc(C(=O)N(C)C)n(Cc4ccccc4)c3C[C@H]2CN1C(=O)c1ccccc1
0.5,CCN1CCc2c(OCC(=O)Nc3cccc(C)c3C)cccc2C1=O
-2.7,C=C(C)C1CC=C(CO)CC1 (stereo not given)
?,COc1ccc(-c2coc3ccc(OC4OC(COC(C)=O)C(OC(C)=O)C(OC(C)=O)C4OC(C)=O)c(OC(C)=O)c3c2=O)cc1 (stereo not given)
7.9,[O-][n+]1onc2c1CCC(=N/O)/C2=N\Nc1ccccc1
5.1,CN(Cc1ccco1)c1ncnc2ccc(-c3ccccc3C(F)(F)F)cc12
0.4,Cc1nc(N2CCOCC2)c2nc(-c3ccccc3)n(CC(C)(C)CN(C)C)c2n1
4.8&2.9&-3.1,C=CC(N)CCC(=O)O (stereo not given)
0.3,CC(=O)O[C@H]1C(=O)[C@@]2(C)C([C@H](OC(=O)c3ccccc3)[C@]3(O)C[C@H](OC(=O)[C@H](O)[C@@H](NC(=O)c4ccccc4)c4ccccc4)C(C)=C1C3(C)C)[C@]1(OC(C)=O)CO[C@@H]1C[C@@H]2O (stereo not given in full)
-1.7[11.7 µM],COC(=O)[C@@H]1[C@@H](C)N(CCc2cc(OC)c(OC)c(OC)c2)C(=O)N[C@H]1c1ccccc1
-0.7,CCO[C@H]1OC(C(=O)O)=C[C@@H](C2CC2)[C@@H]1CCCO
6.2[11.7 µM],C=CC1=C2C=C(C3CC3)N(c3ccc(OC)cc3)C=C2C(=O)C(C)(OC(=O)c2ccco2)C1=O (stereo not given)
6.4,CC(C)Cn1cnc2c(c1=O)c1nc3ccccc3nc1n2Cc1ccc2c(c1)OCO2
-0.9,Cn1c(-c2nonc2NC(=O)c2ccc(C(C)(C)C)cc2)nc2ccccc21
-7.2,COc1ccc2[nH]cc(CC(N)C(=O)O)c2c1 (stereo not given)
2.1,CCCCCCC12CCC(C(=O)O)(CC1)CC2
0.2,C[C@H]1O[C@@H](n2cnc3c(N)ncnc32)C[C@@H]1OP(=O)(O)OP(=O)(O)OP(=O)(O)O
25,CN(C)CCCSC(=N)N
2.9,CCNc1ncc2nc(-c3ccc(OC)cc3)c(=O)n(C[C@H]3CCCO3)c2n1
-3.8&-0.2[11.7 µM],COC(=O)C1=C(C)N(Cc2ccccc2)C2=C3C(=O)CCCC3[C@@](O)(C(=O)OC)C(=O)N2C1c1ccccc1 (stereo not given in full)

Entries shown so far with a halogen, in the order listed:
Menin MLL FP FL,Molecule
1.9,O=C(Oc1ccc([N+](=O)[O-])cc1)c1ccc(Cl)c(S(=O)(=O)N2CCCCC2)c1
5.1,CN(Cc1ccco1)c1ncnc2ccc(-c3ccccc3C(F)(F)F)cc12

The list continues:
Menin MLL FP FL,Molecule
?,COc1cccc(Nc2ncc3nc(-c4ccc(Cl)cc4)c(=O)n(CCC#N)c3n2)c1
0.2,c1coc(-c2nnc(-c3ccc4c(c3)OCO4)o2)c1
-3.3,COc1ccc2[nH]cc(CCNc3ncnc4ccc(-c5ccccc5C#N)cc34)c2c1
1.8,COc1cccc([C@@H]2Oc3ccc(OC)cc3C[C@H]2OC(=O)NCc2ccco2)c1
-1.4,Cc1cnc(CNc2cc(-c3cccc(C#N)c3)ncn2)cn1
-0.2,N#Cc1cccc(-c2cncnc2-n2ccnc2)c1
?,Cc1n[nH]c(C)c1Sc1ccccc1N=Cc1cc([N+](=O)[O-])ccc1O
?,CCn1c2ccccc2c2cc(NC(=O)c3coc(=O)c(Br)c3)ccc21
16,O=C(Cc1ccccc1)Nc1nc2ccc(Cl)cc2c2nc(-c3ccco3)nn12
0.9,N=C(CC(O)COc1ccccc1-c1ccccc1)N1CCCCC1 (stereo not given)
-0.2,CC(NC(=O)C1CCC(CNS(=O)(=O)c2ccccc2)CC1)c1ccc2c(c1)OCCO2 (stereo not given)
-30,O=C(CC(Sc1ccc(Br)cc1)C(=O)O)c1ccc(Br)cc1 (stereo not given)
2.2,CC(=O)N1CCc2cc(C(=O)CN3CCCN(Cc4ccc(F)cc4)C3)ccc21
0.8,Oc1cc2cc(CCN3CCN(c4nsc5ccccc45)CC3)c(Cl)cc2[nH]1
0.3,CN1CCN(CC(O)c2ccccc2)CC1 (stereo not given)
-3.2,Cc1nc(N2CCN(C(c3ccccc3)c3ccccc3)CC2)nc2c1C(=O)CCC2
2.3,CN(C)CCN1C(=O)c2oc3ccccc3c(=O)c2C1c1ccccc1 (stereo not given)
1.5,Cc1cccc(N2CCCn3c2nc2c3c(=O)n(CC(=O)OCc3ccccc3)c(=O)n2C)c1
-5.1,CC12C=CC(=O)C=C1[C@@H](F)CC1C2C(O)CC2(C)C1CC[C@]2(O)C(=O)CO (stereo not given in full)
2.2,c1ccc(COCCCc2cnc[nH]2)cc1
-0.9,CCN(CC)CCCN1C(=O)C(=O)/C(=C(/O)c2ccc3c(c2)CC(C)O3)C1c1ccncc1 (stereo not given)
1.1,COC(=O)CC1C2(C)CC34OC5(C)O[C@@]6(C7/C(=C(/O)C(C)C)C(=O)OC(c8ccoc8)[C@]7(C)C(OC(C)=O)C(OC(C)=O)[C@]6(O5)[C@@]13C)C(OC(C)=O)[C@]4(O)C2OC(=O)C(C)C (stereo not given in full)
3.2,COc1ccccc1-c1cc(=O)c2cccc(OC)c2o1
-1.1,CCC1=C2CC[C@H]3C(=O)N(C)C(=O)[C@H]3[C@H]2[C@@]2(Cc3ccccc3)C(=NCC3CC3)OC(=O)N2C1=O
-0.6,CNC1=CN=C(c2ccccc2)c2cc(Cl)ccc2N1
-3.6,COc1cccc(-c2cc(NCc3cccnc3)ncn2)c1
-1.0,CCOC(=O)C1CCN(CC(=O)Nc2c(C(=O)OC)[nH]c3ccccc23)CC1
-0.1,CCc1ccccc1NC(=S)NN
4.3,COc1ccc(NC(=O)N2CC3(CCN(S(C)(=O)=O)CC3)C2)cc1
-2.5,Cn1c(=O)c2c(SCC(=O)N3CCOCC3)nc(C3CCCCC3)nc2n(C)c1=O
17,O=c1c(O)c(-c2ccc(O)c(O)c2)oc2c(OC[C@@H]3O[C@@H](O)[C@@H](O)[C@H](O)[C@H]3O)c(O)cc(O)c12
-0.7[11.7 µM],COc1ccc(OCC2Cc3c(-c4ccccc4)nc4c(c3CO2)CN(CCOc2ccccc2)CC4)cc1 (stereo not given)
?,O=C(O)c1ccc2c(c1)C(=O)N([C@H](Cc1ccc(-c3ccccc3)cc1)C(=O)O)C2=O
3.0,COCOc1c2c(c(OCOC)c3c(OCOC)cccc13)/C(=N/NS(C)(=O)=O)C1=C2CCCC1
-1.0[11.7 µM],O=C1OC(C2=CCCCC2)=NC12CC2
-7.5,Nc1ccc(C(=O)Oc2ccc([N+](=O)[O-])cc2)c(O)c1
0.2,C=C/C(C)=C/[C@@]1(C)SC(=O)C(C)=C1O
4.2,O=C(Nc1ccccc1)N1CC[C@@]2(CCCN(C(=O)c3ccco3)C2)C1
-2.3,COCCNC(=O)C1(CC(C)C)C=CCN1C(=O)OC (stereo not given)
0.8[24.8 µM],C[C@H](O)[C@@H]1C(=O)N2C(C(=O)O)=C(SCCN=CN)C[C@@H]12
-0.7,Cc1noc(C)c1C(=O)N1CCC[C@@]2(CCN(c3ncccn3)C2)C1
0.0[11.7 µM],CC(=O)OC[C@@H]1O[C@@H](O/N=C2/C[C@@H](O)[C@@H](O)[C@@H]3[C@@H]4C(=O)N(Cc5ccccc5)C(=O)[C@H]4CC[C@H]23)[C@H](OC(C)=O)[C@H](OC(C)=O)[C@@H]1OC(C)=O
3.7,Cc1noc(C(=O)Nc2ccc(Cl)cc2)c1Cl
?,Cc1ccc2cc3c(N)c(C(=O)N4CC(=O)Nc5ccccc54)sc3nc2c1
2.2[11.7 µM],CCCCCCCC1=Cc2ccccc2C(CC(=O)c2ccccc2)N1C(=O)OC (stereo not given)
?,N#CC1=C(N)N2C(=C(C#N)C1c1ccccc1)Sc1ccccc12 (stereo not given)
1.2,CC1=CC2C(CC1=O)C(C)=CCC2C(C)C (stereo not given)
?,CNc1nc(-c2ccoc2)nc2ccccc12
-3.1,COc1ccccc1CN1CCC2(CC1)CCN(C(=O)c1c(C)noc1C)CC2
?,Cc1ccc(CNc2ccc3c(c2)OCO3)c(C)c1
2.0,Cc1cc(C)n2c(SCC(=O)Nc3ccc(Cl)cn3)nnc2n1
4.9[11.7 µM],CCOC(=O)N/N=C1/C[C@@H](O)[C@@H](O)[C@@H]2[C@@H]3C(=O)N(c4cccc(Oc5ccccc5)c4)C(=O)[C@H]3CC[C@@H]12
-0.9[11.7 µM],COC(=O)NC(c1cccc(F)c1)C(C(C)=O)C(=O)OC (stereo not given)
-3.0,CCCCC(CC)CCC(CC(C)C)OS(=O)(=O)O (stereo not given)
2.2,Cc1ccc2nc(NC3=NCN(CCc4ccccc4)CN3)nc(C)c2c1
-1.0,CC(=O)N1CCC2(CC1)CCN(C(=O)Nc1cccc(F)c1)CC2
-1.9,C/C=C/c1ccc(OC)cc1
8.5,CCCCCCCC(=O)OCCOC(=O)CCCCCCC
1.8,COc1cccc(C(=O)Nc2ccc3nc(N4CCN(c5ncccn5)CC4)cc(C)c3c2)c1OC
2.3,N#CCCn1c(=O)c(-c2ccc(Cl)cc2)nc2cnc(OCc3ccccc3)nc21

Ordered by number of heavy atoms (ascending): some entries from above.
Menin MLL FP FL,Molecule
?,CNc1nc(-c2ccoc2)nc2ccccc12
-0.9[11.7 µM],COC(=O)NC(c1cccc(F)c1)C(C(C)=O)C(=O)OC (stereo not given)
2.9,CCNc1ncc2nc(-c3ccc(OC)cc3)c(=O)n(C[C@H]3CCCO3)c2n1
2.3,N#CCCn1c(=O)c(-c2ccc(Cl)cc2)nc2cnc(OCc3ccccc3)nc21
1.5,Cc1cccc(N2CCCn3c2nc2c3c(=O)n(CC(=O)OCc3ccccc3)c(=O)n2C)c1
-2.1&-0.4[11.7 µM],COc1cccc([C@H]2Oc3ccc(OC)cc3/C(=N\O[C@@H](C)c3cn([C@H](CO)Cc4ccccc4)nn3)[C@@H]2O)c1

Looked up by compound from the list above (six):
Menin MLL FP FL,Molecule
17,O=c1c(O)c(-c2ccc(O)c(O)c2)oc2c(OC[C@@H]3O[C@@H](O)[C@@H](O)[C@H](O)[C@H]3O)c(O)cc(O)c12
2.3,N#CCCn1c(=O)c(-c2ccc(Cl)cc2)nc2cnc(OCc3ccccc3)nc21
-0.7[11.7 µM],COc1ccc(OCC2Cc3c(-c4ccccc4)nc4c(c3CO2)CN(CCOc2ccccc2)CC4)cc1 (stereo not given)
-2.3,COCCNC(=O)C1(CC(C)C)C=CCN1C(=O)OC (stereo not given)
-0.9[11.7 µM],COC(=O)NC(c1cccc(F)c1)C(C(C)=O)C(=O)OC (stereo not given)
-3.1,COc1ccccc1CN1CCC2(CC1)CCN(C(=O)c1c(C)noc1C)CC2

The results go on.
Menin MLL FP FL,Molecule
-2.4[11.7 µM],COC(=O)C1=C(C(=O)OC)[C@@H]2N(C)c3ccccc3[C@@]23C[C@@H](C(=O)OC)N(S(=O)(=O)c2c(C)noc2C)C3=N1
8.2,O=C(O)CNS(=O)(=O)c1ccc(-c2ccccc2)cc1
5.6,COc1cc(C2CC(=O)N3CN(c4ccccc4C)CSC3=C2C#N)cc(OC)c1OC (stereo not given)
?,COc1ccc2nc3sc(C(=O)NCc4cccs4)c(N)c3cc2c1
5.1,Cc1sc2nc(CSc3nc4ccccc4s3)[nH]c(=O)c2c1C
-0.9,CCN(CC)CCCC(C)n1c(-c2ccccc2)nc2c(N3CCOCC3)nc(C)nc21 (stereo not given)
-1.5,O=C1CCc2cc(S(=O)(=O)NC(Cc3ccccc3)C(=O)NC3CCCCC3)ccc2N1 (stereo not given)
2.8,COc1cccc(C2C(C(=O)c3cccs3)=C(O)C(=O)N2CCCn2ccnc2)c1OC (stereo not given)
-21,CC(=O)NC1C(O)O[C@H](C(=O)O)[C@@H](O)[C@@H]1O (stereo not given in full)
?,NC1(C(=O)O)CCC1
-1.8,COc1ccc(C(=O)N2CCC[C@@]3(CCN(Cc4ccccc4)C3)C2)cc1
-2.0,O=c1c(CCc2ccccc2)nc2cncnc2n1C1CC1
-3.6,O=C(Nc1ncccn1)c1ccc([N+](=O)[O-])cc1Cl
?,COc1ccc(-c2nc3cnc(N(C)C)nc3n(-c3ccccc3)c2=O)cc1
-1.2,C[C@@H](C(=O)Nc1ccc2ccccc2c1)[C@H]1C[C@]1(C)[C@H](NC(=O)c1ccccc1)c1ccccc1
-6.8,CC(=O)Oc1cc2c(c(C)c1OC(C)=O)CC=C1[C@]3(C)CC[C@]4(C)CC[C@@](C)(C(=O)O)CC4[C@]3(C)CC[C@]12C (stereo not given in full)
